Screening results (PubChem BioAssay)
Mtb growth: Mycobacterium tuberculosis H37Rv growth inhibition, cell based, confirmatory dose response (AID 1949) | most inactive calls were filed without a number and no value below 0 was filed | inhibition, % at 10 µg/mL, or IC50 in µg/mL where a hit was titrated | 1.6% of 100,000 active;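 active means confirmed in a dose series; inconclusive means about 50% or more but not retested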;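 further: bacteria grown 7 days with compound before Alamar blue readout; 0% = untreated bacteria and 100% = reference antibiotic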
Starred values were filed as active, the others as inactive; i = inactive; ? = inconclusive.

SMILES	Mtb growth
COc1ccc(Br)cc1CNCCc1ccc(OC)c(OC)c1	i
O=C(CSc1ncnc2sc3c(c12)CCC3)Nc1nsc(-c2ccc(Cl)cc2)n1	i
O=c1c2cc(I)ccc2nc(/C=C/c2cccnc2)n1-c1ccc([N+](=O)[O-])cc1	i
COc1ccc2c(c1)c(=O)oc1c(C)c(OCC(=O)c3ccc(F)cc3)ccc12	41%
CCOc1ccc(C(=O)Nc2nnc(C3CCCCC3)s2)cc1OCC	i
CCSc1ccccc1C(=O)Nc1ccc(CC)cc1	10%
COc1ccc(N(Cc2cc3cc(C)ccc3[nH]c2=O)C(=O)c2ccccc2)cc1	i
COc1ccc(-c2n[nH]c(=S)n2C)cc1	i
CCNC(=O)CSCc1ccc(C)cc1	i
Cc1ccc(S(=O)(=O)N(C)CC(=O)Nc2ncc(C(F)(F)F)cc2Cl)cc1	i
CCc1c(C)sc(NC(=O)C(F)(F)C(F)(F)C(F)(F)F)c1C#N	i
Cn1c(SCc2nc(-c3ccc(Cl)cc3)no2)nnc1-c1cccs1	i
CC(=O)N(C)c1ccc(NC(=O)COc2ccc(Cl)cc2Br)cc1	i
Cc1cc(Br)cc(C)c1NC(=S)NC(=O)COc1ccc(C(C)C)cc1	i
O=C1NC(c2ccccc2)=C([N+](=O)[O-])C(c2cccc(F)c2)N1 (stereo not drawn)	i
CCn1c(CSCc2ccccc2)nnc1SCC(=O)Nc1ccc(C(=O)OC)cc1	i
Cc1ccc(-c2nnc(SCC(=O)Nc3cc(F)ccc3C)n2C)cc1	i
CCOc1ccc(NC(=O)C(c2ccccc2)c2ccccc2)c([N+](=O)[O-])c1	i
COc1ccc(C2CC(=O)C3=C(C2)Nc2ccccc2NC3c2ccc(OC)c(Br)c2)cc1 (stereo not drawn)	i
COc1ccc(OC)c(NS(=O)(=O)c2ccc(NS(=O)(=O)c3ccc4c(c3)OCCO4)cc2)c1	i
COc1ccc(NC(=S)N2CCN(c3ccc([N+](=O)[O-])cc3)CC2)cc1OC	i
COC(=O)c1sc(N2C(=O)C(=O)/C(=C(/O)c3ccccc3)C2c2ccccc2F)nc1C (stereo not drawn)	i
COc1cc(CNCCO)cc(I)c1OC1CCCC1	i
O=C(NC(=S)Nc1ccc2c(c1)oc1ccccc12)c1ccc2c(c1)OCO2	i
CC(=O)Nc1ccccc1C(=O)OCc1ccc(F)cc1	i
CCOC(=O)c1cc(C#N)c(SCC)[nH]c1=O	i
Nc1nc(-c2ccco2)nn1C(=O)c1ccc([N+](=O)[O-])cc1	i
O=[N+]([O-])c1cnn(Cc2ccc(Br)cc2)c1	i
COc1cc(NC(=O)CN2C(=O)c3ccccc3C2=O)cc(OC)c1	i
O=C(CCNc1n[nH]c(=O)[nH]c1=O)N/N=C/c1cccs1	i
Cc1ccccc1-c1noc(-c2ccccc2F)n1	i
O=C(Nc1ccc(CN2CCOCC2)cc1)c1ccc(Cl)cc1Cl	i
COC(=O)COc1ccc2c(=O)c(Oc3ccc(OC)cc3)coc2c1	16%
CN(CC(O)COc1ccc2ccccc2c1)C1CCCCC1 (stereo not drawn)	2%
CN(Cc1nc2ccccc2n1C)C(=O)c1cccs1	i
Cc1cccc(C)c1NC(=O)COc1ccc2c(c1)oc(=O)c1ccccc12	1%
O=C(C1CCN(Cc2ccccc2F)CC1)N1CCN(Cc2ccc3c(c2)OCO3)CC1	6%
CCN(CC)Cc1c(O)ccc2c(-c3ccccc3)cc(=O)oc12	1%
Cc1ccc(NC(=O)CC2CCCCC2)c(C)c1	2%
Cc1cccc(OC(C)C(=O)Nc2ccc([N+](=O)[O-])cc2)c1C (stereo not drawn)	3.1µg/mL*

Part of the list above in order of molecular weight, low to high.
SMILES	Mtb growth
Cc1ccc(NC(=O)CC2CCCCC2)c(C)c1	2%
CCOC(=O)c1cc(C#N)c(SCC)[nH]c1=O	i
Cc1ccccc1-c1noc(-c2ccccc2F)n1	i
O=[N+]([O-])c1cnn(Cc2ccc(Br)cc2)c1	i
CN(Cc1nc2ccccc2n1C)C(=O)c1cccs1	i
CC(=O)Nc1ccccc1C(=O)OCc1ccc(F)cc1	i
Nc1nc(-c2ccco2)nn1C(=O)c1ccc([N+](=O)[O-])cc1	i
O=C(CCNc1n[nH]c(=O)[nH]c1=O)N/N=C/c1cccs1	i
CN(CC(O)COc1ccc2ccccc2c1)C1CCCCC1 (stereo not drawn)	2%
Cc1cccc(OC(C)C(=O)Nc2ccc([N+](=O)[O-])cc2)c1C (stereo not drawn)	3.1µg/mL*
CCN(CC)Cc1c(O)ccc2c(-c3ccccc3)cc(=O)oc12	1%
COc1cc(NC(=O)CN2C(=O)c3ccccc3C2=O)cc(OC)c1	i
COC(=O)COc1ccc2c(=O)c(Oc3ccc(OC)cc3)coc2c1	16%
O=C(Nc1ccc(CN2CCOCC2)cc1)c1ccc(Cl)cc1Cl	i
Cc1ccc(-c2nnc(SCC(=O)Nc3cc(F)ccc3C)n2C)cc1	i
CCOc1ccc(NC(=O)C(c2ccccc2)c2ccccc2)c([N+](=O)[O-])c1	i
O=C(NC(=S)Nc1ccc2c(c1)oc1ccccc12)c1ccc2c(c1)OCO2	i
COc1ccc(NC(=S)N2CCN(c3ccc([N+](=O)[O-])cc3)CC2)cc1OC	i
COC(=O)c1sc(N2C(=O)C(=O)/C(=C(/O)c3ccccc3)C2c2ccccc2F)nc1C (stereo not drawn)	i
COc1ccc(C2CC(=O)C3=C(C2)Nc2ccccc2NC3c2ccc(OC)c(Br)c2)cc1 (stereo not drawn)	i
COc1ccc(OC)c(NS(=O)(=O)c2ccc(NS(=O)(=O)c3ccc4c(c3)OCCO4)cc2)c1	i

(list continues)
SMILES	Mtb growth
OC(CNC1CCCC1)Cn1c2ccccc2c2ccccc21 (stereo not drawn)	8.9µg/mL*
CCOC(=O)c1c(C)n(C)c2ccc(OCC(O)Cn3c(C)nc4ccccc43)cc12 (stereo not drawn)	i
CCOc1ccccc1N(CC(=O)N1CCCCC1)S(=O)(=O)c1ccc(Cl)cc1	i
COc1ccc2c(c1)c(=O)oc1cc(OCc3ccc(F)cc3Cl)ccc12	2%
COc1ccc(N2C(=O)C3C4c5ccccc5C(CO)(c5ccccc54)C3C2=O)c([N+](=O)[O-])c1 (stereo not drawn)	14%
COCCCN1C(=O)c2ccc(C(=O)Nc3cc(Cl)ccc3OC)cc2C1=O	i
CN(C)CCCNC(=O)c1cc(-c2ccc(Cl)s2)nc2ccccc12	i
COc1ccc(C(=O)C(C)Oc2ccc(NC(=O)c3ccccc3C)cc2)cc1 (stereo not drawn)	4%
N#CC1=C(SCC(=O)Nc2nccs2)NC(=O)CC1c1ccc(Cl)cc1 (stereo not drawn)	i
CCN1C(=O)C(O)(CC(=O)c2cc(OC)ccc2OC)c2ccccc21 (stereo not drawn)	i
Cc1ccc(S(=O)(=O)N(C)CC(=O)NCCCc2ccccc2)cc1	i
COCCCNCCOc1ccc(Cl)cc1Br	i
COc1ccc(NC(=O)N2CCc3ccccc3C2)cc1OC	i
O=C(O)Cc1ccc(NC(=O)C2CC=CCC2C(=O)O)cc1 (stereo not drawn)	i
CN1C(=O)N(C)C(=O)C(Cc2cccc(F)c2)(Cc2cccc(F)c2)C1=O	6%
COc1ccccc1CCNCc1ccc(OC)c(OC)c1	i
CCOC(=O)C1CCN(C(=O)c2cccc(Cl)c2)CC1	i
CC(=O)c1cn(Cc2ccccc2C#N)c2ccccc12	i
COc1cc(NS(=O)(=O)c2ccc(NC(=O)COc3cc(C)ccc3C)cc2)nc(OC)n1	i
N#CCCN(CCC#N)C(=O)Cc1ccc(F)cc1	i
CCC(=O)NNC(=O)CSc1ccc2ccccc2n1	i
COc1cc(C)c(S(=O)(=O)N2c3ccccc3CC2C)cc1C (stereo not drawn)	2%
CCCOC(=O)NC1CCS(=O)(=O)C1 (stereo not drawn)	1%
Cc1ccc(C(C)C)cc1S(=O)(=O)NCc1cccnc1	i
COc1ccc(S(=O)(=O)Nc2ccccc2C(=O)N2CCOCC2)cc1C	0%
Cc1ccc(NC(=O)c2cc([N+](=O)[O-])ccc2N2CCCC2)cc1Cl	i
COC(=O)c1cn(CC(=O)N2CCc3ccccc3C2)c2ccccc12	i
CSc1ncnc2c1ncn2CC(=O)Nc1ccc(C)c(C)c1	<0.1µg/mL*
Cn1c2ccc(Br)cc2c2nnc(SCCN3CCOCC3)nc21	i
COCCN1C=C(C(=O)OC)C(c2cc(Cl)c(O)c(OC)c2)C(C(=O)OC)=C1	i
COC(=O)c1cc(C)sc1NC(=S)NCCCn1cc(C)cn1	i
CCCCC1(CC(=O)N2CCOCC2)C(=O)N(c2ccccc2)N(c2ccccc2)C1=O	0%
COc1ccc(S(=O)(=O)NCc2ccco2)c(Cl)c1Cl	i
O=[N+]([O-])c1ccc(N2CCN(c3ncnc4c3cnn4-c3ccc(Cl)cc3)CC2)cc1	i
Cn1c(=O)c2c(-c3ccccc3)n(-c3ccc(F)cc3)cc2n(C)c1=O	i
COc1ccc(N2CCN(c3nc(NCCO)nc(OC)n3)CC2)cc1	i
Cc1cccc(C(=O)Nc2nnc(SCC(=O)c3ccc(Cl)cc3)s2)c1	i
CCc1ccc(-n2c(C34CC5CC(CC(C5)C3)C4)n[nH]c2=S)cc1	i
CCN(CC)C(=O)C(=O)Nc1cc(Cl)cc(Cl)c1	i
CCOc1cc(Br)c(C(=O)O)cc1OCC	i
COc1cccc(C(=O)Nc2cccc3ccccc23)c1OC	?
CC1=C(C(=O)OCC2CCCO2)C(c2ccc(C(F)(F)F)cc2)NC(=O)N1C (stereo not drawn)	i
COc1ccc(N2C(=O)N(c3ccccc3)C3CS(=O)(=O)CC32)cc1 (stereo not drawn)	i
CC(CCc1ccccc1)NC(=O)C(C)c1ccccc1 (stereo not drawn)	i
C=CCn1c(SCC(=O)NCc2ccccc2)nnc1-c1ccco1	i
O=C(Nc1cc(Cl)ccc1N1CCOCC1)c1cccnc1	i
CCOc1ccc(-c2cn(C(=O)Nc3ccccc3)nc2N)cc1	13%
O=C(O)c1cc(-c2ccccn2)nc2ccc(Br)cc12	i
CC(=O)Nc1nc(-c2ccc(Cl)cc2)cs1	6%
N#Cc1cc2c(nc1SCC(=O)Nc1ccc(S(=O)(=O)Nc3nccs3)cc1)CCC2	5%
COc1ccc(S(=O)(=O)Nc2ccccc2C(=O)NCc2ccccc2)cc1	i
O=C(CSc1nnc2scc(-c3ccccc3)n12)NCCc1ccccc1	i
O=C(C1CCN(S(=O)(=O)c2ccc(Cl)cc2)CC1)N1CCCCC1	i
COc1ccc2c(c1)C1=C(CC2)C(c2ccc(F)cc2)NC(=S)N1 (stereo not drawn)	i
COC(=O)c1sc2cccc(Cl)c2c1Cl	i
Cn1c(SCCO)nc2c(c1=O)C1(CCCCC1)Cc1ccccc1-2	5%
c1ccc2c(OCCCN3CCCCCC3)cccc2c1	i
O=C(CSc1nnnn1-c1ccc2c(c1)OCO2)N1CCOCC1	i
C=CCn1c(SCC(=O)Nc2ccc(Br)cc2)nnc1-c1ccc(OC)cc1	i
O=C(CSc1nc(Nc2ccccc2)nc(N2CCOCC2)n1)NCc1ccccc1	i

(continued)
SMILES	Mtb growth
COc1ccc(N2CCN(S(=O)(=O)c3ccc(OC)c(I)c3)CC2)cc1	i
O=C(NC(Cc1ccccc1)C(=O)N1CCCC1C(=O)O)c1ccccc1 (stereo not drawn)	i
CC12CCC(C(=O)N3CCCc4ccccc43)(C(=O)C1=O)C2(C)C (stereo not drawn)	11%
CC(C)OCCCNC(=O)c1ccc(F)cc1	i
O=C(OCc1ccc(Cl)cc1)c1ccc(-c2nnc(-c3ccccc3)o2)cc1	i
O=C(NC1CCCCC1)N1CCN(c2ccccc2F)CC1	i
COc1ccc(CNC(=O)C2CCN(C(=O)Cc3ccccc3)CC2)cc1	i
CCCNC(CC(=O)Nc1ccccc1)C(=O)O (stereo not drawn)	i
COC(=O)c1ccc(CNC(=O)C(=O)Nc2cc(Cl)ccc2C)cc1	i
CCOC(=O)c1c(C)[nH]c(C(=O)OC)c1CCC(=O)OC	4%
CCOc1cc(CNC(C)(C)C)c(Cl)cc1OC(C)C	i
COc1cc(OC)c(C(=O)NCCc2ccc(Cl)cc2)cc1OC	i
C=CCN(CC=C)C(=O)c1ccc(OC)c(Br)c1	i
O=c1[nH]c2ccccc2n1CCCN1CCCCC1	i
O=C1c2ccccc2S(=O)(=O)N1c1ccccc1F	i
CCCCc1c(C)[nH]c2ccccc2c1=O	30%
CC(C)c1ccc(C2NC(=S)NC3=C2CCc2ccccc23)cc1 (stereo not drawn)	9%
CCn1c(CC(=O)Nc2ccc(C)cc2)nnc1SCC(=O)NCCc1ccccc1	8%
O=C1C2C(c3ccccc3)OC3(C(=O)c4ccccc4C3=O)C2C(=O)N1C1CCCCC1 (stereo not drawn)	i
COc1cc([N+](=O)[O-])ccc1NC(=O)Nc1cccnc1	i
CCC(=O)NC(=S)Nc1ccc(O)cc1	i
Oc1ccccc1OCCOCCOc1ccccc1O	2%
O=C(CCSc1ccc(Cl)cc1)Nc1ccc(S(=O)(=O)N2CCOCC2)cc1	i
O=C(O)c1ccc(C23CC4CC(CC(C4)C2)C3)o1	i
c1ccc(-n2c(SCc3nc(-c4cccs4)no3)nnc2-c2cccs2)cc1	1%
Nc1cccc(-c2cnc3ccccc3n2)c1	i
Cn1c(SCC(N)=O)nnc1-c1cccc(Cl)c1	i
Cc1sc2ncnc(N3CCN(c4ccccc4F)CC3)c2c1C	i
CNCCOC12CC3CC(CC(C3)C1)C2	i
Cc1ccc(S(=O)(=O)N(CC(=O)NCc2ccco2)Cc2cccc(Cl)c2)cc1	1%
Clc1ccccc1OCCCN1CCNCC1	i
CCOc1ccccc1NC(=S)Nc1cccc(C(=O)NCc2ccccc2)c1	i
CCn1c(SCC(=O)Nc2cccc(C(=O)OC(C)C)c2)nnc1-c1ccc(Cl)cc1Cl	i
CC(C)C(=O)Nc1cccc(NC(=O)c2sc3ccccc3c2Cl)c1	i
CCOC(=O)c1ccc(NC(=O)C(=O)Nc2ccncc2)cc1	i
Cc1ccc2cccc(OCC(=O)c3ccc(C)c(C)c3)c2n1	11µg/mL*
COc1cc(C=O)ccc1OCC(=O)Nc1ccc(Cl)cc1	i
Fc1ccc(C2C=C(c3ccc(Br)cc3)Nc3nnnn32)cc1 (stereo not drawn)	i
CCN1CCCC1Cn1c(=S)[nH]c2ccccc2c1=O (stereo not drawn)	i
COC(=O)c1ccc(NC(=O)CCc2ccc(OC)cc2)cc1	0%

These rows are one share of the data (hit frequency here may not be typical).
